Mtb H37Rv – Mycobacterium tuberculosis H37Rv growth inhibition, cell based, confirmatory dose response (AID 1949). M. tuberculosis H37Rv growth inhibition. most inactive calls were filed without a number and no value below 0 was filed. one-dose inhibition, % at 10 µg/mL; IC50 in µg/mL for titrated hits. 1.6% of 100,000 active;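 active = confirmed in a dose series; inconclusive = about 50% or more but not retested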;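 note: bacteria grown 7 days with compound before Alamar blue readout; 0% = untreated bacteria and 100% = reference antibiotic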
* marks the source's active call; other numbers are inactive results; i = inactive; ? = inconclusive.

structure	Mtb H37Rv
O=C(O)c1ccc(NC(=O)c2cnccn2)cc1	i
CCOc1ccc(C(=O)NC(=S)Nc2ccc(CN3CCOCC3)cc2)cc1Cl	16µg/mL*
COc1ccc(Cl)cc1NC(=O)C1CCN(S(=O)(=O)c2ccccc2)CC1	0%
COc1ccc(NC(=O)c2ncn[nH]2)cc1OC	i
Cc1cccc(-n2cnc3cc([N+](=O)[O-])ccc32)c1	i
C=CCOc1c(Br)cc(C2C3=C(CCCC3=O)N(C)C3=C2C(=O)CCC3)cc1OCC	i
CCOC(=O)COc1ccc2c(=O)c(-c3ccc(F)cc3)coc2c1	21µg/mL*
O=C(COc1ccc2ccccc2c1Br)Nc1ccccc1-c1ccccc1	13%
Cc1cc(C)c2oc(-c3ccc(NC(=O)c4cccc(Cl)c4)cc3)nc2c1	1%
CC(C)(C)c1ccc(C(=O)Nn2cnnc2)cc1	i
CCCCc1ccc(NC(=S)N2CCN(CCO)CC2)cc1	i
NC(=O)c1ccc(-n2nnnc2SCc2ccc(C(=O)O)cc2)cc1	i
CC(=O)c1c(C)n(CC(N)=O)c2ccccc12	i
Cc1cc(OCC(=O)Nc2ccc(S(=O)(=O)N3CCc4ccccc43)cc2)ccc1Cl	i
CC(=O)COc1ccc2c(C(F)(F)F)cc(=O)oc2c1	1%
COc1ccc(C(=O)CN2C3=NCCCN3c3ccccc32)cc1OC	i
COc1ccccc1Nc1ncnc2c1cnn2Cc1ccccc1	i
CC(=O)Nc1ccc(NC(=O)CC2Nc3ccccc3NC2=O)cc1 (stereo not drawn)	i
Cc1ccc(NC(=S)NCc2ccc3c(c2)OCO3)cc1C	40%
Cc1ccc(S(=O)(=O)N(CC(=O)N2CCN(Cc3ccccc3)CC2)c2ccccc2Cl)cc1	0%

Sorted by length of the SMILES (high to low): part of the list above
structure	Mtb H37Rv
Cc1cc(OCC(=O)Nc2ccc(S(=O)(=O)N3CCc4ccccc43)cc2)ccc1Cl	i
COc1ccc(C(=O)CN2C3=NCCCN3c3ccccc32)cc1OC	i
Cc1ccc(NC(=S)NCc2ccc3c(c2)OCO3)cc1C	40%
COc1ccccc1Nc1ncnc2c1cnn2Cc1ccccc1	i

Further compounds.
structure	Mtb H37Rv
COc1ccc(CCNc2nc(N3CCOCC3)nc(N3CCOCC3)n2)cc1OC	i
COC(=O)c1c(NC(=S)Nc2ccn(C)n2)sc(C(=O)N(C)C)c1C	i
CN(C)CCNC(=O)CSc1ccccc1	i
Cc1ccc(NC(=O)C2CC2c2ccccc2)c([N+](=O)[O-])c1 (stereo not drawn)	1%
Cc1cccc(-c2nc(N(C)Cc3ccccc3)c3ccccc3n2)c1	9%
CCC(=O)N1CCN(c2ccc(NC(=O)c3c(OC)cccc3OC)cc2)CC1	i
COc1cc(NS(=O)(=O)c2ccc(NC(=O)c3ccc(S(=O)(=O)N4CCCC4)cc3)cc2)ncn1	i
CC(=O)NS(=O)(=O)c1ccc(NC(=O)COc2ccc(C(C)C)cc2)cc1	i
Cc1cccc(Cc2cnc(NC(=O)c3cccc([N+](=O)[O-])c3)s2)c1	43%
N#Cc1c(NC(=O)c2ccc3c(c2)OCCO3)sc2c1CCCC2	2%
Cc1ccc2c(c1)C(=O)CC(c1ccc(Br)cc1)O2 (stereo not drawn)	i
FC(F)(F)c1cccc(OCCNC2CCCC2)c1	i
CC(NC(=O)c1ccco1)c1ccc2c(c1)OCO2 (stereo not drawn)	i
COc1ccc(C2CC(=O)C3=C(C2)Nc2ccccc2NC3c2cccs2)cc1 (stereo not drawn)	i
CCCC(C)C(=O)Nc1ccc(I)cc1 (stereo not drawn)	i
O=C(NCCc1ccccc1)c1c(F)cccc1F	5%
Cc1ccc(S(=O)(=O)/C=C/C#CC(C)(C)C)cc1	i
COC(=O)C(C)Oc1ccc2c3c(c(=O)oc2c1)CCCCC3 (stereo not drawn)	i
COC(=O)c1cc(OC)c(OC)cc1NC(=O)c1ccc(Br)o1	i
CSc1ccc(Cl)c(C(=O)NC23CC4CC(CC(C4)C2)C3)c1	1%
COc1ccc(CNC(=O)C(C)N(c2ccc(Oc3ccccc3)cc2)S(C)(=O)=O)cc1 (stereo not drawn)	i
S=C(NCCc1ccncc1)Nc1ccccc1	i
CCc1ccc2c(c1)C(O)(CC(=O)c1ccco1)C(=O)N2 (stereo not drawn)	i
O=c1[nH]c(/C=C/c2c(F)cccc2Cl)c([N+](=O)[O-])c(=O)[nH]1	i
COc1ccc(S(=O)(=O)N2CCC(C(=O)Nc3ccc(F)c(Cl)c3)CC2)cc1OC	i
Cc1cc(NC(=S)NC(=O)c2ccco2)c(C)cc1I	i
O=S(=O)(NCC1CCN(S(=O)(=O)c2ccccc2)CC1)c1ccccc1	i
Cc1cc(C)c(C)c(S(=O)(=O)Nc2ccc(C(=O)N3CCCC3)cc2)c1C	5%
CCC(=O)C1(Sc2nc3ccccc3[nH]2)CC(C)(C)OC1=O (stereo not drawn)	0%
COc1ccccc1C(=O)Nc1ccc(-c2cc3ccccc3oc2=O)cc1	1%
Cc1ccc(NC(=O)CSc2nnc(CCc3ccccc3)n2-c2ccccc2)c(C)c1	i
CCCCOc1ccc(C(=O)NC(=S)Nc2ccccc2C(N)=O)cc1	i
CCCCOc1ccc(C(=O)NC(=S)Nc2nc(-c3ccc(OC)c(OC)c3)cs2)cc1	i
Cc1ccc(N(CC(=O)Nc2ccccc2C(N)=O)S(=O)(=O)c2ccc(F)cc2)cc1	i
COc1ccc(-c2nn(-c3ccccc3)cc2CNCc2ccccc2)cc1	6µg/mL*
COc1ccc(-c2nc(N3CCCCCC3)[nH]c(=O)c2C#N)cc1	i
Cc1ccc(S(=O)(=O)N(CC(=O)Nc2ccccc2C)Cc2ccc(Cl)c(Cl)c2)cc1	i
CC1=C(C(=O)OCc2ccccc2)C(c2ccc(C(C)C)cc2)NC(=O)N1 (stereo not drawn)	i
NC(=O)c1c(NC(=O)Cn2nc(C(F)(F)F)c3c2CCCC3)sc2c1CCCC2	i
CC(=O)c1cccc(NC(=O)CC2S/C(=N\N=C(/C)c3ccccc3)NC2=O)c1 (stereo not drawn)	i
CC(=O)Oc1cccc(NC(=O)C(c2ccccc2)c2ccccc2)c1	i
CC1=C(C(=O)OCc2ccccc2)C(C2CC=CCC2)NC(=O)N1 (stereo not drawn)	i
COc1cccc(S(=O)(=O)Nc2cccc(C(F)(F)F)c2)c1	3%
COc1ccc(CCNC(=S)Nc2ccc(Cl)cc2F)cc1OC	i
Cc1ccc(NC2CCS(=O)(=O)C2)cc1 (stereo not drawn)	i
COCCCNCCSc1ccc(Cl)cc1	i
COc1cc(Br)c(C2NC(=S)NC(c3ccccc3)=C2C(C)=O)cc1OC (stereo not drawn)	i
O=C(Nc1nc2c(s1)CCCC2)C(=O)c1c[nH]c2ccccc12	i
Cc1cc([N+](=O)[O-])ccc1NC(=O)CSc1nnc(C(NC(=O)c2ccc(F)cc2)C(C)C)n1C (stereo not drawn)	1%
COC(=O)c1ccc(CSc2nnc(-c3cccc(Br)c3)o2)o1	?

An excerpt of these results, field by field:
COc1ccc(NC(=O)c2ncn[nH]2)cc1OC
  Mtb H37Rv: i
Cc1cccc(-n2cnc3cc([N+](=O)[O-])ccc32)c1
  Mtb H37Rv: i

Further compounds.
structure	Mtb H37Rv
O=C(NC1CCCCC1)c1cc(S(=O)(=O)N2CCOCC2)cs1	i
O=C(O)/C=C/C(=O)Nc1cccc(F)c1	i
CCOC(=O)c1c(NC(=O)CCC(=O)N2CCOCC2)sc2c1CC(C)(C)OC2	i
CCN1CCN(C(=O)c2ccc(CN(c3ccccc3)S(=O)(=O)c3ccccc3)cc2)CC1	i
COC(=O)C(NC(=O)C(NC(=O)c1ccccc1)C(C)C)C(C)C (stereo not drawn)	i
CC(C)CNC(=O)c1ccccc1NS(=O)(=O)c1ccc(F)cc1	i
CSc1ccccc1NC(=S)NCc1ccc(Cl)cc1	i
CS(=O)(=O)N1CCN(C(=O)COc2ccc3ccccc3c2)CC1	5%
CCOc1cc(CNCCc2ccccc2)ccc1OCC(=O)NC(C)(C)C	i
CCOC(=O)N1CCN(CC(O)COCc2ccccc2)CC1 (stereo not drawn)	i

Rewritten with each value named: 2 of the compounds above.
CC(C)CNC(=O)c1ccccc1NS(=O)(=O)c1ccc(F)cc1
  Mtb H37Rv: i
CSc1ccccc1NC(=S)NCc1ccc(Cl)cc1
  Mtb H37Rv: i

(next part)
structure	Mtb H37Rv
CCCSc1ncc(Cl)c(C(=O)NCc2ccc(OC)cc2)n1	2%
C=CCOc1c(Cl)cc(CNc2ccc(N(C)C)cc2)cc1OC	1%
CCC1CCCCN1C(=O)c1c(F)c(F)cc(C)c1Cl (stereo not drawn)	i
CCOC(=O)N1CCN(C(=O)CN(C)S(=O)(=O)c2ccc(OC)c(OC)c2)CC1	i
CC1(C)CC(NC(=O)Cc2cccc3ccccc23)CC(C)(C)N1	i
Cc1ccc(C(=O)N/C(=C/c2ccc(-c3ccc(Cl)cc3)o2)C(=O)NC(C)C)cc1	i
CCCOc1cccc(C(=O)Nc2sc3c(c2C#N)CCC(C)C3)c1 (stereo not drawn)	i
CC(C)(C)c1cc(C(=O)NCCCn2ccnc2)cc(C(C)(C)C)c1	?
CCCCc1ccc(Nc2ncnc3sc4c(c23)CCCC4)cc1	?
CCOc1ccc(NS(=O)(=O)c2ccc(NC(=S)Nc3ccccc3)cc2)cc1	i
CC(C)c1ccc(N(CC(=O)Nc2ccccc2C(=O)NCc2ccco2)S(C)(=O)=O)cc1	i
CC(Sc1ccc(Cl)cc1)C(=O)N1CCN(c2cccc(Cl)c2)CC1 (stereo not drawn)	i
CC(C)(Oc1ccc(Cl)cc1)C(=O)O/N=C(\N)c1ccncc1	i
O=C(Nc1ccccc1Cl)N1CCN(C/C=C/c2ccccc2)CC1	i
O=C(Cn1cnc2sc3c(c2c1=O)CCCC3)OCc1ccccc1	i
CCC(C)c1ccc(OCC(=O)Nc2ccc(N3CCN(C)CC3)cc2)cc1 (stereo not drawn)	46%
O=C(NCc1ccco1)c1n[nH]c(=O)c2ccccc12	i
CCC(=O)Nc1ccc(F)c(Cl)c1	6%
CC(=O)C(Sc1ncnc2scc(-c3ccc(Br)cc3)c12)C(C)=O	i
CCOc1ccc(NC(=O)CSc2nc3nc(C)cc(C)n3n2)cc1	i
Cc1ccc2c(=O)c(CN3CCCCCC3)c(C)[nH]c2c1C	i
CCc1ccc(N(CC(=O)NCc2ccccc2C)S(=O)(=O)c2ccccc2)cc1	i
O=C(CCc1ccccc1)NC(=S)NCc1ccco1	5%
CCN(CC)c1cc(Oc2ccccc2)ncn1	6%
COc1ccc(CCCc2nnc(SCC(=O)Nc3nccs3)n2C)cc1C	i
Fc1ccccc1OCCOCCn1cncn1	1%
Cc1ccc(C)c(NC(=O)CN(c2ccc(Cl)cc2C)S(C)(=O)=O)c1	3%
Cc1ccc(NC(=S)Nc2ccccc2F)cc1C	i
Cc1cccc(-n2c(SCC(=O)O)nnc2-c2cccs2)c1C	i
C=CCOc1ccc(C2c3c(oc4ccc(Cl)cc4c3=O)C(=O)N2Cc2ccc(OC)cc2)cc1OC (stereo not drawn)	i
COC(=O)c1c(NC(=O)CN2CCC(C)CC2)sc(Br)c1-c1ccccc1	3%
Fc1ccccc1N1CCN(C(=S)NC2CCCC2)CC1	i
Cc1c(NC(=O)CN2C(=O)c3ccccc3S2(=O)=O)c(=O)n(-c2ccccc2)n1C	i
Cc1ccc(C2=NN(S(C)(=O)=O)C(c3ccc(Cl)cc3)C2)cc1 (stereo not drawn)	i
COc1ccc(C)cc1NS(=O)(=O)c1cccc2cccnc12	i
Cc1c(Cl)cccc1NC(=O)COc1ccccc1	4%
CCc1c(C)sc(NC(=O)c2cc(-c3ccc(OC)cc3OC)nc3ccccc23)c1C(=O)OC	i
Cc1c(C(=O)Nc2nc3ccccc3s2)oc2c1C(=O)CC(C)(C)C2	i
Cc1ccc(C(C)(C)C)c(OCCCNCCN)c1	i
O=C(NC(=S)Nc1ccccc1N1CCOCC1)c1ccccc1[N+](=O)[O-]	i
COc1ccc(-c2nn(-c3ccccc3)cc2/C=C/C(=O)c2ccccc2)cc1Br	2%
COc1ccc(S(=O)(=O)Nc2cc(Cl)ccc2C)cc1Br	7%
COc1ccc(C(=O)Nc2c(Cl)cc(Cl)cc2C(=O)N2CCC(C)CC2)cc1	i
Cc1cc(C)c(C#N)c(SC2CCc3ccccc3C2=O)n1 (stereo not drawn)	i
CCOCCCNC(=O)CCCOc1ccc(Cl)cc1C	i
CC1(C)CC(=O)C2=C(C1)Nc1[nH]c(=O)[nH]c(=O)c1C2c1ccc(Cl)cc1Cl (stereo not drawn)	i
CN(C)S(=O)(=O)N(CC(=O)NCCSCc1ccccc1)c1ccccc1	i
Cc1cccn2c(=O)c3cc(C(N)=S)c(=N)n(CCc4ccccc4)c3nc12	i
CC(C)c1ccccc1NC(=O)c1ccccc1N(C)S(C)(=O)=O	0%
COc1ccc(S(=O)(=O)Nc2cccc(Cl)c2)cc1Br	i
COc1ccc(NC(=S)Nc2nn(Cc3ccc(Cl)cc3Cl)cc2Cl)cc1OC	i
O=C(CCCN1C(=O)c2ccccc2C1=O)NCc1ccc(F)cc1	i
COc1cc(C)c(S(=O)(=O)NCc2ccccc2)cc1C(C)C	2%

Assay outcomes from PubChem.

Some of the compounds tested; count on the stated rates, not on these rows.
